Bioassay records from PubChem.
StopGo reporter: lowers the luciferase signal of an FMDV 2A StopGo reporter; human cells with a luciferase reporter of 2A StopGo recoding; control for the full effect not named in the record; hit rate 1.2% among 410,000; AID 1159524; Potency, µM (titrated, usually from 57.9 µM), without a hit: top-dose signal change, negative = less light; active = well fitted falling curve with a large enough effect; inconclusive = small, poorly fitted or top-dose-only effect; inactive = no such curve, though single readings can be large or run the other way; tested in HEK293T cells; further: on the % scale 0 is the no-effect control and ±100 the full control effect; nearly all actives have a fitted effect of over 45% in size; luciferase light after 4 h
SARS PLpro yeast: SARS-CoV PLP inhibition in yeast; S. cerevisiae expressing SARS-CoV PLpro, growth rescue; control for the full effect not named in the record; Potency, µM (titrated, usually from 32.9 µM), for inactives: top-dose activity, positive = growth rescue; hit rate 0.19% among 330,000; active means well fitted rising curve with a large enough effect; inconclusive means small, poorly fitted or top-dose-only effect; inactive means no such curve, though single readings can be large or run the other way; further: 0% is about no effect; nearly all actives have a fitted effect of over 55% in size; growth read by luminescence after 48 h
Cruzain inh Det: inhibitors of Trypanosoma cruzi cruzain with detergent | P25779 | purified cruzain, Z-FR-AMC fluorescence, 0.01% Triton | Potency, µM, inactives show max response, negative = inhibition, most hits filed as inhibitors | hit rate 0.43% among 200,000 | AID 1478;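 further: plate controls were neutral wells for no effect and buffer without enzyme for full effect; nearly all actives have a fitted effect of over 40% in size; top concentration of the series not given in the record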
Target sequence (P25779 123-467 limits assumed): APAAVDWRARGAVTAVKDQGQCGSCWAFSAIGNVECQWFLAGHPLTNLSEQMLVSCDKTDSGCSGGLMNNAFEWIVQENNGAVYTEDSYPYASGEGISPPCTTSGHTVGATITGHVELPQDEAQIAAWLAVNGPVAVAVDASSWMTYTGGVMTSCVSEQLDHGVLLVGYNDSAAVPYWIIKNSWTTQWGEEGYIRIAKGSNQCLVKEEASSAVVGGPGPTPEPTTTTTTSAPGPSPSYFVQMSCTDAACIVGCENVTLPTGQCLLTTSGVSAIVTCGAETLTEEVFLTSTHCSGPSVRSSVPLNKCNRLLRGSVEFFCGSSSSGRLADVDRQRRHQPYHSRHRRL
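Enzyme 1.5 nM, Z-FR-AMC 2 uM, NaOAc 100 mM pH 5.5, DTT 5 mM, Triton X-100 0.01%; 15 min RT compound preincubation; kinetic ex360/em450, 60 s delta.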
LASV entry inh: blocks Lassa virus binding to or entry into cells; Lassa virus pseudotype entry inhibition, cell reporter; control for the full effect not named in the record; Potency, µM (titrated, usually from 37.9 µM), for inactives: at the highest dose activity change, negative = inhibition, usual class: inhibitors; hit rate 1.2% among 300,000; AID 540256; active means well fitted inhibition curve with a large enough effect; inconclusive means small, poorly fitted or top-dose-only effect, or effect the other way; inactive means flat fitted curve, though single readings scatter; tested in HEK293 cells; further: on the % scale 0 is the no-effect control and ±100 the full control effect; nearly all actives have a fitted effect of over 50% in size; luciferase read-out
NS1 inh: blocks influenza NS1 protein function | Potency, µM (titrated, usually from 46.1 µM), for inactives: top-dose activity, positive = more growth | S. cerevisiae slowed by influenza A NS1, growth recovery by OD600 | hit rate 0.4% among 270,000; active means well fitted rising curve with a large enough effect; inconclusive means small, poorly fitted or top-dose-only effect; inactive means no such curve, though single readings can be large or run the other way; further: nearly all actives have a fitted effect of over 50% in size
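Growth recovery, yeast-based: influenza A NS1 expressed in S. cerevisiae causes slow growth, and suppressors are detected by OD600. The parent strain without NS1 is used as positive control.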
RE007 growth inh: less growth of the S. pombe RE007 Vpr strain | S. pombe RE007 Vpr strain, BacTiter-Glo ATP luminescence, 24 h; control for the full effect not named in the record | Potency, µM (doses to about 92.2 µM), for the others: top-dose activity change, negative = less growth | hit rate 0.21% among 360,000 | AID 651644; active = well fitted falling curve with a large enough effect; inconclusive = small, poorly fitted or top-dose-only effect; inactive = no such curve, though single readings can be large or run the other way;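 further: on the % scale 0 is the no-effect control and ±100 the full control effect; nearly all actives have a fitted effect of over 50% in size; the assay follows cell death caused by Vpr and the record does not say whether a fall means rescue or toxicity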
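Fission yeast strain RE007, carrying one chromosomally integrated HIV-1 vpr copy, was seeded at OD 0.01 in PMG+AL medium with 23 nL pinned compound. After 24 h at 30 °C and 99% humidity, viability was read by BacTiter-Glo luminescence.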
Cruzain inh noDet: inhibitors of Trypanosoma cruzi cruzain without detergent; P25779; purified cruzain, Z-FR-AMC fluorescence, no detergent; Potency, µM, for inactives: max response, negative = inhibition, most hits filed as inhibitors; hit rate 2.3% among 200,000;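 further: plate controls were enzyme without inhibitor for no effect and buffer without enzyme for full effect; nearly all actives have a fitted effect of over 40% in size; top concentration of the series not given in the record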
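Purified cruzain at 1.5 nM, pre-incubated 15 min with compound at room temperature in 100 mM sodium acetate pH 5.5, 5 mM DTT, 0.00005% Triton X-100. Reaction started with 2 uM Z-FR-AMC; AMC fluorescence increase over 60 s gives rate.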
MARV entry inh: Marburg virus entry inhibition. Potency, µM (top dose mostly 37.8 µM), for inactives: at the highest dose activity change, negative = inhibition, actives largely listed as inhibitors. Marburg virus pseudotyped entry inhibition, cell reporter; control for the full effect not named in the record; about a third of the inactives were read at about 46 µM. hit rate 1.8% among 300,000. AID 540276; active = well fitted inhibition curve with a large enough effect; inconclusive = small, poorly fitted or top-dose-only effect, or effect the other way; inactive = flat fitted curve, though single readings scatter; tested in HEK293 cells; about a fifth of its hits are not listed in these tables; further: on the % scale 0 is the no-effect control and ±100 the full control effect; luciferase read-out
An asterisk follows results filed as active; ? = inconclusive; / = not tested or not shown; [ ] = remark or other dose. Unless noted, the call rests on the fitted dose curve; in most records, active means well fitted curve in the direction sought with a large enough effect; inconclusive means small, poorly fitted or top-dose-only effect, or another doubt; inactive means no such curve, though single readings can be large; an effect the other way counts as inactive or inconclusive. Potency means the concentration at half of the fitted maximal effect.

Compound	StopGo reporter	SARS PLpro yeast	Cruzain inh Det	LASV entry inh	NS1 inh	RE007 growth inh	Cruzain inh noDet	MARV entry inh
CCOC(=O)C1=C(C)NC(=O)C(C#N)C1c1ccncc1 (stereo not given)	-11%	2%	2.3%	8%	8%	4%	-3%	3%
Cc1ccc(-n2c(O)c(C=Nc3ccc(S(=O)(=O)N(C)C)cc3)c(=O)[nH]c2=O)cc1	-1%	-9%	3.4%	?	7%	12%	7%	-30%
O=C(NCCc1ccccc1)C(=O)NCC(c1ccc2c(c1)OCO2)N1CCOCC1 (stereo not given)	-15%	/	0.3%	18%[46.1 µM]	/	/	12%	/
O=C(CCN1CCC2CCC(C2)C1)c1ccccc1 (stereo not given)	?	/	/	14%	/	-6%	/	1%
CCn1c(C)cc(/C=C2\NC(=O)N(CC(=O)Nc3cccc(C)c3)C2=O)c1C	22%	-7%	0.7%	?	?	-4%	?	-11%
COC(=O)c1ccccc1N1C(=O)C2C(C1=O)C1C=CC2C12CC2 (stereo not given)	-3%	3%	5.9%	-1%	-19%	11%	1%	-1%
Cc1ccc(C(=O)N/C(=C/c2cccnc2)C(=O)O)cc1	-22%	1%	-1.5%	2%	22%	6%	-2%	8%
NS(=O)(=O)c1ccc(N=Nc2c(O)[nH]c3ccc(Br)cc23)cc1	10%	-1%	/	?	14%	9%	/	-7%[46.1 µM]
CCOc1ccc(NC(=O)C(C)C(Cc2ccc(C)cc2)C(=O)O)cc1 (stereo not given)	-22%	-1%	/	/	1%	-5%	/	/
O=C(c1cc2sccc2n1Cc1ccc(F)cc1)N1CCN(c2nc3ccccc3s2)CC1	?	20%	-1.8%	-35%	?	11%	13µM*	3.5µM*
Cc1nnc2n(c1=O)C(CS(=O)(=O)c1ccc3ccccc3c1)CS2 (stereo not given)	3%	2%	/	12%	/	15%	/	7%[46.1 µM]
CC/C(=N/OC(=O)c1cccc(C)c1)C(=O)c1cccs1	12%	-3%	/	-6%[46.1 µM]	-4%	-6%	/	0%[46.1 µM]
CCCS(=O)(=O)N1CCCC(C(=O)NCc2ccc3c(c2)OCO3)C1 (stereo not given)	14%	5%	4.3%	-1%	-2%	12%	-4%	?
COCCNC(=O)Cn1nc(C(F)(F)F)c(Cl)c1C	-8%	11%	5.4%	5%	9%	11%	14%	?
Cc1ccc(C(=O)CC(=O)c2ccccc2)cc1	71%[activator]	?	/	/	-33%	-14%	/	/
CCCCN(C)CCCNC(=O)C1CC(=O)N(Cc2ccc(OC)cc2)C1 (stereo not given)	4%	/	5.1%	-12%	-5%	-6%	-4%	4%
COc1ccccc1N(C)S(=O)(=O)c1ccc(C(=O)Nc2nnc(C)s2)cc1	-21%	2%	/	-1%	/	10%	/	4%
Cc1ccccc1CSc1nnc2[nH]c(=O)cc(C)n12	-6%	/	-2.2%	23%[46.1 µM]	/	/	-1%	/
COc1cc(OC)c(C(=O)OCC(=O)Nc2cc(C)on2)cc1OC	0%	-4%	/	-23%	/	21%	/	-1%[46.1 µM]
CCCOc1ccc(OC(=O)c2ccc(-c3ccc(CCC)cn3)cc2)cc1	-15%	/	1.9%	0%[46.1 µM]	/	/	-2%	/
Cc1cccc(OCC(=O)NNC(=O)C2CCN(c3ncnc4sc(C)c(C)c34)CC2)c1	28µM*	4%	/	-1%	/	7%	/	-29%
COc1ccc(N2C(=NC(=O)CCCc3ccccc3)SC3CS(=O)(=O)CC32)cc1 (stereo not given)	-8%	3%	/	/	-2%	-4%	/	/
Cc1ccc(NC(=O)/C(C#N)=C\c2ccc(-c3ccc(Cl)cc3)o2)c(C)c1	-20%	/	1.0%	26%[46.1 µM]	/	/	10%	/
Nn1c(SCC(=O)NCCN2C(=O)CSC2=O)nnc1-c1ccc(OC(F)F)cc1	-8%	2%	/	6%	/	7%	/	21%
CCOC(=O)c1c(C)sc(-c2c(-c3ccc(OC)c(F)c3)[nH]c3[nH]c(=O)[nH]c(=O)c23)c1O	-23%	/	-1.2%	8%[46.1 µM]	/	/	-13%	13%[46.1 µM]
C=CCC(NCc1ccccc1)c1ccco1 (stereo not given)	9%	/	2.1%	0%	5%	-4%	-1%	8%
NNC(=O)c1cc(O)c(O)c(O)c1	-16%	3%	/	-21%	8%	13%	/	?
CCC(=O)Nc1ccccc1-c1nc2ccccc2n(C(CC)C(=O)Nc2cccc(Cl)c2)c1=O (stereo not given)	?	/	-3.1%	-13%[46.1 µM]	/	/	-3%	-15%[46.1 µM]
CCCC(C)Sc1nc2c([nH]1)c(=S)n(C)c(=O)n2C (stereo not given)	?	/	/	20%[46.1 µM]	/	-8%	/	-24%
O=S(=O)(NC1CC1)c1ccc(Cl)cc1F	23%	4%	/	22%	-22%	13%	/	17%[46.1 µM]
Cn1c(NC(=O)c2ccc(Cl)s2)cc(=O)n(C)c1=O	-7%	-8%	-7.3%	13%	-1%	25%	-5%	4%
CCCCC(CC)Cn1c(N)c(C#N)c2nc3ccccc3nc21 (stereo not given)	/	-8%	-3.0%	?	-6%	6%	7%	-35%
CC1CCC/C(=C(\C#N)c2nc(-c3cc4ccccc4oc3=O)cs2)C1 (stereo not given)	-19%	5%	-7.2%	14%	25%	0%	-15%	?
CCOC(=O)/C=C1/SCC(=O)N1Cc1ccc(Br)cc1	-19%	/	/	?	/	14%	/	?
CCOC(=O)N1CCC(Nc2ncnc3c2cnn3-c2ccc(C)cc2C)CC1	?	-12%	-1.6%	/	-52%	4%	25%	/
O=C(CCc1nnc(CCCCc2ccccc2)o1)NCc1cccc(F)c1	-4%	0%	/	1%[46.1 µM]	-9%	50%	/	3%[46.1 µM]
Cn1cnc([N+](=O)[O-])c1Sc1ccccc1	28µM*	1%	7.1%	-22%	-11%	-12%	1%	-8%
Cc1cc(C(=O)Nc2ccc3ccccc3c2)c(C)o1	3%	-5%	/	?	-8%	1%	/	?
O=P(CN1CCN(c2ccccc2)CC1)(N1CCCCC1)N1CCCCC1	3%	9%	-3.6%	?	-23%	10%	?	1%
COc1cccc(COC(=O)C2CCN(S(=O)(=O)c3ccc(C)cc3)CC2)c1OC	-20%	-3%	/	26%	/	5%	/	-15%
CC(NC(=O)c1ccc(-c2cc(C(F)(F)F)ccc2Cl)o1)c1ccccc1 (stereo not given)	-15%	1%	-5.7%	-26%	-1%	-7%	-1%	-1%
CC(C)(C)c1cnnn1-c1ccc([N+](=O)[O-])cc1	11%	-2%	/	6%	/	-4%	/	1%[46.1 µM]
Cc1ccc(NC(=O)C2CCN(S(=O)(=O)c3ccc4c(c3)OCCCO4)CC2)nc1	?	5%	/	-2%[46.1 µM]	/	10%	/	-12%
N#C/C(=C\c1ccccc1)C(=O)N1CCC(C(N)=O)CC1	-12%	0%	/	1%[46.1 µM]	13%	-7%	/	?
Cc1cccc(C(=O)NCCc2n[nH]c(=S)n2C)c1	-2%	25%	0.7%	11%	2%	15%	6%	?
O=C(NCCc1cccnc1)C1CCC(=O)N(CCc2cccc(F)c2)C1 (stereo not given)	5%	5%	/	20%	21%	14%	/	14%
CC(CCc1ccc(O)cc1)NC(c1ccccc1)c1ccc(Cl)cc1 (stereo not given)	-21%	4%	/	?	10%	-11%	/	?
CCCN(CCC)CCCNC(=O)c1cc2c(=O)n(C)c3ccccc3c2s1	-3%	/	-11%	5%[46.1 µM]	/	/	?	?
CC(=O)NCCCc1nc2ccccc2n1Cc1c(F)cccc1Cl	-6%	0%	/	-9%[46.1 µM]	3%	-20%	/	?
O=C(Nc1sc2c(c1C(=O)NCc1ccccc1)CCCC2)c1cc(=O)c2ccccc2o1	-17%	/	0.0%	-1%[46.1 µM]	/	/	3%	1%[46.1 µM]

The results go on.
Compound	StopGo reporter	SARS PLpro yeast	Cruzain inh Det	LASV entry inh	NS1 inh	RE007 growth inh	Cruzain inh noDet	MARV entry inh
Cc1cccc(N2C(=O)CS(=O)(=O)C23C(=O)N(C)c2ccccc23)c1 (stereo not given)	-15%	/	-2.2%	22%[46.1 µM]	/	/	?	/
Nc1c(Br)cc([N+](=O)[O-])cc1[N+](=O)[O-]	0%	0%	-1.9%	/	/	-22%	-5%	/
Cc1ccc(C(=O)Oc2ccc(/C=C3\C(=N)N4N=C(N5CCOCC5)SC4=NC3=O)cc2)cc1	25%	0%	/	/	5%	1%	/	/
Cc1ccc(NC(=O)Cn2cc(C(=O)C3CCCCC3)c3ccccc32)cc1	-14%	/	-7.1%	-4%[46.1 µM]	/	/	?	-18%[46.1 µM]
COc1ccc(C(=O)C2CCCN(S(=O)(=O)c3ccccc3F)C2)c(C)c1 (stereo not given)	-1%	-2%	/	?	8%	-3%	/	?
O=C(Nc1ccc(Cl)c(-c2nc3ccccc3[nH]2)c1)c1ccc2c(c1)OCO2	11%	-31%	-2.4%	?	?	17%	?	?
c1ccc2c(c1)ccc1nnc(SCc3ccc4c(c3)OCCO4)n12	31%[activator]	0%	-6.4%	/	-72%	0%	-21%	4%
CC(=O)Nc1cccc(C(=O)OCN2C(=O)c3ccccc3C2=O)c1	-20%	-3%	/	/	9%	-3%	/	/
COc1ccccc1CNC(=O)CSc1ncc(S(=O)(=O)c2ccc(C)c(Cl)c2)c(=O)[nH]1	10%	/	-8.3%	18%[46.1 µM]	/	/	?	/
Cc1cc(OC(=O)CCCNC(=O)OC(C)(C)C)c2c3c(c(=O)oc2c1)CCC3	-10%	2%	-5.4%	9%	-6%	-15%[3.69 µM]	23%	-11%
COc1ccc(CCNC(=O)CNS(=O)(=O)c2ccc(F)c(Cl)c2)cc1OC	-2%	7%	/	/	5%	-14%	/	/
CCOC(=O)CNC(=O)N1CCCC(CCC(=O)NCc2ccc(F)c(F)c2)C1 (stereo not given)	-1%	0%	/	24%[46.1 µM]	8%	-19%	/	0%[46.1 µM]
O=C(Nc1ccc(NC(=O)c2cccs2)cc1)c1ccco1	64%[activator]	-21%	5.8%	-19%	-3%	11%	?	-9%
